# High-throughput results (PubChem)
# StopGo RLuc: FMDV 2A StopGo reporter, Renilla signal. actives 0.32% (n = 120,000). Potency, µM (doses to about 57.5 µM), without a hit: top-dose signal change, negative = less light. HEK cells with a luciferase reporter of 2A StopGo recoding. AID 1745857; active means well fitted falling curve with a large enough effect; inconclusive means small, poorly fitted or top-dose-only effect; inactive means no such curve, though single readings can be large or run the other way; further: nearly all actives have a fitted effect of over 55% in size; overnight with compound
# 2A firefly: lowers the firefly signal of an FMDV 2A StopGo reporter; HEK cells with a luciferase reporter of 2A StopGo recoding; Potency, µM (series often up to 57.5 µM), for inactives: at the top dose signal change, negative = less light; actives 0.23% (n = 120,000); active = well fitted falling curve with a large enough effect; inconclusive = small, poorly fitted or top-dose-only effect; inactive = no such curve, though single readings can be large or run the other way; further: nearly all actives have a fitted effect of over 60% in size; overnight with compound
# * = called active by the depositor; ? = inconclusive; [ ] = another dose, or the depositor's remark. On the % scale 0 is the no-effect control and ±100 the full control effect; potency means the concentration at half of the fitted maximal effect.
SMILES,StopGo RLuc,2A firefly
CC(=O)c1cc2c(cc1N/C(=N/S(=O)(=O)c1ccc(C)cc1)c1ccc(Cl)cc1)OCO2,20%,13%
Cc1nn(CCC(=O)Nc2cccc(C#N)c2)c(C)c1S(=O)(=O)N1CCC(C)CC1,21%,-20%
CC(C)C[C@H](NC(=O)CCn1ccc2ccc(F)cc21)C(=O)O,-12%,-11%
CC(=O)NC(Nc1cc(C(F)(F)F)ccc1Cl)C(Cl)(Cl)Cl (stereo not given),3%,17%
O=C(Nc1cccc(S(=O)(=O)N2CCCCCC2)c1)C1=COCCO1,86%[activator],0%
CCCSc1nc2ccccc2c(=O)n1-c1ccccc1OC,?,16%
CC(C)(C)c1ccc(C(=O)N/N=C/C2CC3CCC2C3)cc1 (stereo not given),-6%,0%
CCc1ccccc1NC(=O)CN(C)CC(=O)NC(=O)NCC(F)(F)F,2%,17%
Cc1ccc(C(=O)N/C(=C\c2ccco2)C(=O)O)cc1,46%[activator],101%[activator]
Cc1csc(CNC(=O)N(C)Cc2ccc3c(c2)OCCO3)n1,-3%,18%
Cc1ccccc1NC(=O)c1sc2c(c1C)C(c1cccs1)CC(=O)N2 (stereo not given),-9%,98%[activator]
O=[N+]([O-])c1cc(-c2nc(-c3ccccc3)no2)ccc1N1CCOCC1,17%,-101%
Cn1c(SCc2ccc(Cl)c(Cl)c2)nnc1-c1cccnc1,12%,0%
Cc1cc(C)c(NC(=O)C(C)Sc2cc(C)ccc2C)c(C)c1 (stereo not given),15%,24%
COc1ccc2c(c1)c1c(c(=O)n(CCc3ccccc3)c(=O)n1Cc1ccc(F)cc1)n2C,-3%,17%
O=C(CSc1ncnc2ccccc12)Nc1ccccc1-c1ccccc1,?,?
Cc1[nH]c2ccccc2c1/C=N/c1sc2c(c1C#N)CCC(C)C2 (stereo not given),29%,154%[activator]
O=C(NCc1ccc(F)cc1)c1ccc2c(c1)N(Cc1ccc(F)cc1Cl)C(=O)CS2,-2%,-13%
CCSc1ncc(Cl)c(C(=O)Nc2ccccc2C(F)(F)F)n1,5%,25%
CCOc1ccc(N2CC(C(=O)Nc3ccc(C)cn3)CC2=O)cc1 (stereo not given),6%,18%

# Molecules listed so far that contain a thiophene ring, fused or not, in the order listed:
SMILES,StopGo RLuc,2A firefly
Cc1ccccc1NC(=O)c1sc2c(c1C)C(c1cccs1)CC(=O)N2 (stereo not given),-9%,98%[activator]
Cc1[nH]c2ccccc2c1/C=N/c1sc2c(c1C#N)CCC(C)C2 (stereo not given),29%,154%[activator]

# Other structures:
SMILES,StopGo RLuc,2A firefly
CCn1nc(C(=O)OC(C(=O)c2c[nH]c3ccccc23)c2ccccc2)c2ccccc2c1=O (stereo not given),111%[activator],19%
COc1cc(OC)cc(C(=O)NC2CC3CCC2C3)c1 (stereo not given),10%,16%
COC(=O)CCOc1ccc(S(=O)(=O)Nc2cccc(Cl)c2C)cc1,53%[activator],-7%
CCOC(=O)C1=C(CN2CCN(C)CC2)NC(=O)NC1c1ccc(F)cc1 (stereo not given),-6%,-18%
CSc1ccc(CNC(=O)C2CCCN(S(=O)(=O)N(C)c3ccc(F)cc3)C2)cc1 (stereo not given),?,?
COc1ccc(/C=C2\Oc3cc(OS(=O)(=O)c4ccc(OC)cc4)ccc3C2=O)cc1,9%,12%
C=C(C)Cn1c(-n2nc(C)c(C)c2C)nc2c1c(=O)n(C)c(=O)n2C,-15%,-19%
CN(Cc1ccc(C(=O)NCC(F)(F)F)cc1)C(=O)C1CCCN(C(=O)c2ccc(Cl)cc2)C1 (stereo not given),28%,2%
O=C(O)CCC(=O)NC(Cc1c[nH]c2ccccc12)C(=O)O (stereo not given),-12%,-8%
O=C(O)C(c1c[nH]c2ccc(Cl)cc12)N1CCc2ccccc2C1 (stereo not given),5%,-18%
COc1ccc(NC(=O)c2cc(C3CC3)nc3c2c(C)nn3-c2ccccc2)cc1,-6%,-13%
CCc1ccc(NC(=O)c2nc3ccccc3nc2N2CCN(C)CC2)cc1,-20%,-18%
Clc1ccc2nc(NCc3ccccc3)c3nncn3c2c1,-18%,?
COc1ccc(S(=O)(=O)c2c(C)c(C)n(C3CCCC3)c2NC(C)=O)cc1,44%[activator],-6%
CCOC1OC(=O)C(Cl)=C1Nc1ccc(C)cc1C (stereo not given),8%,16%
COc1ccc(CCNC(=O)c2ccc3nc(N4CCOCC4)sc3c2)cc1OC,4%,8%
CCOC(=O)N1CCN([C@H]2CS(=O)(=O)C[C@@H]2S(=O)(=O)c2ccccc2)CC1,10%,8%
COCc1ccc(C(=O)NCc2ccco2)cc1,1%,54%[activator]
CCCn1c(=O)c2ccc(C(=O)NC(C)C)cc2n2c(SCc3ccccc3Cl)nnc12,-6%,3%
CCOc1ccc(CCNC(=O)c2ccc3c(c2)sc2nc(-c4ccc(F)cc4)cn23)cc1OCC,-24%,12%

# 6 of these compounds, reformatted.
canonical_smiles	StopGo RLuc	2A firefly
CCCSc1nc2ccccc2c(=O)n1-c1ccccc1OC	?	16%
CC(C)(C)c1ccc(C(=O)N/N=C/C2CC3CCC2C3)cc1 (stereo not given)	-6%	0%
CCc1ccccc1NC(=O)CN(C)CC(=O)NC(=O)NCC(F)(F)F	2%	17%
Cc1ccc(C(=O)N/C(=C\c2ccco2)C(=O)O)cc1	46%[activator]	101%[activator]
Cc1csc(CNC(=O)N(C)Cc2ccc3c(c2)OCCO3)n1	-3%	18%
Cc1ccccc1NC(=O)c1sc2c(c1C)C(c1cccs1)CC(=O)N2 (stereo not given)	-9%	98%[activator]

# A draw from above in order of formula weight, high to low.
SMILES,StopGo RLuc,2A firefly
CCOc1ccc(CCNC(=O)c2ccc3c(c2)sc2nc(-c4ccc(F)cc4)cn23)cc1OCC,-24%,12%
CCCn1c(=O)c2ccc(C(=O)NC(C)C)cc2n2c(SCc3ccccc3Cl)nnc12,-6%,3%
CCOC(=O)N1CCN([C@H]2CS(=O)(=O)C[C@@H]2S(=O)(=O)c2ccccc2)CC1,10%,8%
COc1ccc(S(=O)(=O)c2c(C)c(C)n(C3CCCC3)c2NC(C)=O)cc1,44%[activator],-6%
Clc1ccc2nc(NCc3ccccc3)c3nncn3c2c1,-18%,?
CCOC1OC(=O)C(Cl)=C1Nc1ccc(C)cc1C (stereo not given),8%,16%

# Next part
SMILES,StopGo RLuc,2A firefly
CC1=NS(=O)(=O)c2cc(Cl)ccc2N1,106%[activator],-6%[11.5 µM]
O=C(CS)Nc1ccccc1,-19%,1%
CCN(CC)CCCNC(=O)c1ccc2c(c1)NC(=O)C(CS(=O)(=O)Cc1cccc(Br)c1)N2 (stereo not given),-3%,22%
CCc1nn2c(=O)c(S(=O)(=O)Nc3ccc(Cl)cc3)c(C)nc2s1,56%[activator],-23%
CCOC(=O)COc1ccc2c(=O)c(-c3ccccc3)coc2c1,-2%,-12%
CCOC(=O)C1=CN(c2ccc(F)cc2)C=C(C(=O)OCC)C1c1ccc(F)cc1,1%,4%
CCCCOc1ccc(NC(=O)COc2ccc(CC)cc2)c2cccnc12,-7%,13%
O=C(NC1CC(=O)N(c2ccc(F)cc2)C1)C1CCCCC1 (stereo not given),?,?
Cc1ccc(C(CNc2oc(CC(C)C)nc2C#N)N2CCOCC2)cc1 (stereo not given),46%[activator],13%
COc1ccc(C)cc1-n1c(-c2ccc(C)cc2)cc2c1CC(C)(C)CC2=O,-3%,0%
COc1cccc(NC(=O)c2nc3ccccc3nc2N2CCCC2)c1,14%,24%
O=C(CC12CC3CC(CC(C3)C1)C2)NCC(=O)N1CCC(c2nc3ccccc3o2)CC1,-21%,-8%
COc1cc(OC)c(OC)cc1CN1CCCC(C(=O)N2CCCCCC2)C1 (stereo not given),2%,-1%
CCN(CC(=O)NC(=O)NC1CCCCC1)CC(C)C#N (stereo not given),0%,7%
COc1ccc(S(=O)(=O)Nc2ccc3oc4c(c3c2)CCCC4)cc1,217%[activator],19%
CCc1ccc(-c2cc(C(=O)Nc3nccs3)c3ccccc3n2)cc1,25%,180%[activator]
CNC(=O)c1ccc(Cl)c(NC(=O)NC(C)C(C)C)c1 (stereo not given),50%[activator],25%
O=C1C2CCCCC1CN(Cc1ccccc1)C2,15%,4%
CCN(C(=O)C1CCN(c2oc(-c3ccco3)nc2C#N)CC1)c1ccccc1C,6%,-2%
COc1ccc(NC(=O)c2oc3c(c2C)-c2nn(Cc4ccccc4Cl)cc2CC3)cc1OC,11%,-14%
COc1cc(C(=O)/C(=C/c2cccnc2)c2nc3ccccc3o2)cc(OC)c1OC,?,?
Cc1ccc2oc(C(=O)Nc3cccnc3)cc(=O)c2c1,27%,0%
O=C(CNS(=O)(=O)c1ccc(Br)s1)N1CCN(c2ccccc2F)CC1,99%[activator],-25%
Cc1ccc(Cl)cc1NC(=O)Cn1c(=O)c2ccccc2n2nncc12,-13%,-20%
CCOc1ccc(C2C(C(=O)Nc3ccccc3)=C(C)Nc3nc(SCc4cc(C)ccc4C)nn32)cc1 (stereo not given),-10%,-14%
COC(=O)c1cc(C(C)C)sc1NC(=O)Cc1ccc(Cl)c(Cl)c1,-5%,-9%
COc1cccc(CNC(=O)CSc2n[nH]c(-c3ccccc3Cl)n2)c1OC,-5%,-1%
Cc1ccccc1C(=O)NC1CCCC1,-4%,0%
O=C(Nc1nc(-c2ccccc2)cs1)C12CC3CC(CC(C3)C1)C2,?,2%
O=C(NCc1ccc(F)cc1)c1cc2cccc3c2n1CCS3,-5%,22%
CCSc1ncc(Cl)c(C(=O)N(Cc2ccccc2Cl)C2CCS(=O)(=O)C2)n1 (stereo not given),-2%,-18%
O=C(c1ccc(Cl)o1)N1CCCc2cc(C(F)(F)F)ccc21,50%[activator],64%[activator]
CCOc1ccc(NC(=O)CSC2=Nc3ccccc3C3=NC(CC(=O)NCc4ccccc4OC)C(=O)N23)cc1 (stereo not given),-10%,-12%
O=C(c1cc(=O)c2ccccc2o1)N(Cc1cccs1)c1ccccn1,63%[activator],4%
CNC(=O)Cc1ccc(NC(=O)C2CCCCC2)cc1,0%,9%
CCCOc1ccc(C(=O)Nc2ccc3oc(-c4ccccc4)nc3c2)cc1,-6%,14%
O=C(Nc1cccc(Cl)c1)c1cc(-c2ccc3c(c2)OCCO3)on1,?,18%
C/C(=N/N=C(c1ccccc1)c1ccccc1)c1ccccn1,15%,64%[activator]
CCOC(=O)C1=C(C(Br)Br)NC(=O)NC1c1ccc2c(c1)OCO2 (stereo not given),4%,0%
CCc1ccc(OCCCOc2ccccc2/C=N/NC(=O)c2cccc(Cl)c2)cc1,2%,135%[activator]

# Part of the list above in a different format.
CCc1ccc(OCCCOc2ccccc2/C=N/NC(=O)c2cccc(Cl)c2)cc1
  StopGo RLuc: 2%
  2A firefly: 135%[activator]
CCOc1ccc(NC(=O)CSC2=Nc3ccccc3C3=NC(CC(=O)NCc4ccccc4OC)C(=O)N23)cc1 (stereo not given)
  StopGo RLuc: -10%
  2A firefly: -12%

# (more compounds)
SMILES,StopGo RLuc,2A firefly
Cc1ccc(-n2ncc3c(Nc4cccc(C(F)(F)F)c4)ncnc32)cc1C,5%,37%[activator]
O=C(O)C(c1c[nH]c2ccc(Cl)cc12)N1CCN(CCOc2ccc(Cl)cc2)CC1 (stereo not given),-13%,-10%
Cc1cc(C=O)[nH]c1C,-11%,3%
CC1(C)O[C@H]2[C@@H](O1)[C@@H](C(=O)Oc1ccc3ccccc3c1)O[C@@H]1OC(C)(C)O[C@@H]12,9%,0%
CCOc1ccc(NC(=O)Cn2c(=O)n(CCC(=O)NCCc3ccccc3)c(=O)c3ccccc32)cc1,9%,12%
O=c1[nH]c2ccc(-c3csc(Nc4ccccc4F)n3)cc2o1,106%[activator],133%[activator]
Cc1cc(CSc2nnc(-c3cccnc3)n2Cc2ccco2)on1,-2%,-10%
O=C(NCc1cccc(OC(F)F)c1)c1cccc(-n2cnnn2)c1,-12%,-5%
CCCn1c(NC(=O)c2nn(C)c(=O)c3ccccc23)nc2ccccc21,51%[activator],29%
Cc1ccc(C2=CC(c3c(F)cccc3Cl)n3nnnc3N2)cc1 (stereo not given),12%,42%[activator]
COc1ccc(O)c(C(=O)OC(C)C(=O)C23CC4CC(CC(C4)C2)C3)c1 (stereo not given),25%,66%[activator]
COc1ccccc1NC(=O)CSc1nc(N2CCCC2)c2c(c1C#N)CCCC2,-6%,-13%
COc1ccccc1CNC(=O)CSc1ncc2c(n1)-c1ccc(Cl)cc1N(Cc1ccccc1)S2(=O)=O,-2%,-16%
O=C(COC(=O)c1ccc2ccccc2n1)Nc1ccc(F)c(F)c1F,1%,19%
CC(C)CNC(=O)c1c(-c2ccccc2)c(-c2ccccc2)nn(C)c1=O,6%,0%
Cc1ccc(Cl)cc1NC(=O)C(=O)c1c(C)[nH]c2ccccc12,16%,2%
COc1ccc(-c2cn3c(n2)sc2cc(C(=O)NCCc4ccccc4)ccc23)cc1,-14%,0%
COc1ccccc1Nc1nc(N)nc(CN2CCN(c3ccccc3)CC2)n1,-3%,8%
COc1cc(C(=O)NC2CCCc3ccccc32)ccc1C (stereo not given),250%[activator],0%
CCCCOc1ccc(C2c3c(-c4ccccc4O)n[nH]c3C(=O)N2Cc2ccncc2)cc1OC (stereo not given),100%[activator],0%
c1coc(-c2nnc3n2C2(CCCC2)Cc2ccccc2-3)c1,9%,7%
O=Cc1c(-c2ccc(Br)cc2)[nH]c2ccccc12,33%[activator],0%
CCC(C)c1ccc(S(=O)(=O)N2CCN(C(=O)c3n[nH]c(=O)c4ccccc34)CC2)cc1 (stereo not given),-9%,-9%
